Cruzain Triton – qHTS Assay for Promiscuous and Specific Inhibitors of Cruzain (with detergent); purified cruzain, Z-FR-AMC fluorescence, 0.01% Triton; Potency, µM, for the others: max response, negative = inhibition, hits mostly inhibitors; actives 0.43% (n = 200,000); AID 1478, 2009;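 further: plate controls were neutral wells for no effect and buffer without enzyme for full effect; nearly all actives have a fitted effect of over 40% in size; top concentration of the series not given in the record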
Target sequence (P25779 123-467 limits assumed): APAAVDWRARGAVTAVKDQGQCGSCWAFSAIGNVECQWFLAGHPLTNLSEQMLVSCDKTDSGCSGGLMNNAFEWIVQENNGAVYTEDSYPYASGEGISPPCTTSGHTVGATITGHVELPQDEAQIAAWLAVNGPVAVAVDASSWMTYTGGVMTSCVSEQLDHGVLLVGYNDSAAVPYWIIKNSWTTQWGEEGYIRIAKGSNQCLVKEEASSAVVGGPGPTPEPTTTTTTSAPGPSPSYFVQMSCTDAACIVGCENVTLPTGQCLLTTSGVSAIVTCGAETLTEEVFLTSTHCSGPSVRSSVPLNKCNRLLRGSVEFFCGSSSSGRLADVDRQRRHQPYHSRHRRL
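Detergent-containing arm of a paired screen for aggregation-based inhibition: 0.01% Triton X-100 present. Cruzain at 1.5 nM cleaved 2 uM Z-FR-AMC at pH 5.5 with 5 mM DTT; AMC fluorescence gain over 60 s measured activity.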
LASV entry inh – qHTS for Inhibitors of binding or entry into cells for Lassa Virus | Lassa virus pseudotype entry inhibition, cell reporter; control for the full effect not named in the record | Potency, µM (highest dose often 37.9 µM), for the others: top-dose activity change, negative = inhibition, most hits filed as inhibitors | actives 1.2% (n = 300,000); active means well fitted inhibition curve with a large enough effect; inconclusive means small, poorly fitted or top-dose-only effect, or effect the other way; inactive means flat fitted curve, though single readings scatter; tested in HEK293 cells; further: on the % scale 0 is the no-effect control and ±100 the full control effect; nearly all actives have a fitted effect of over 50% in size; luciferase read-out
2A StopGo – High Throughput Screening for Foot and Mouth Disease Virus Antivirals; AID 1159524, 2015; human cells with a luciferase reporter of 2A StopGo recoding; control for the full effect not named in the record; Potency, µM (titrated, usually from 57.9 µM), without a hit: top-dose signal change, negative = less light; actives 1.2% (n = 410,000); active = well fitted falling curve with a large enough effect; inconclusive = small, poorly fitted or top-dose-only effect; inactive = no such curve, though single readings can be large or run the other way; tested in HEK293T cells; further: on the % scale 0 is the no-effect control and ±100 the full control effect; nearly all actives have a fitted effect of over 45% in size; luciferase light after 4 h
SARS PLP yeast – qHTS of Yeast-based Assay for SARS-CoV PLP; S. cerevisiae expressing SARS-CoV PLpro, growth rescue; control for the full effect not named in the record; Potency, µM (top dose mostly 32.9 µM), for the others: top-dose activity, positive = growth rescue; actives 0.19% (n = 330,000); AID 485353, 2010; active means well fitted rising curve with a large enough effect; inconclusive means small, poorly fitted or top-dose-only effect; inactive means no such curve, though single readings can be large or run the other way; further: 0% is about no effect; nearly all actives have a fitted effect of over 55% in size; growth read by luminescence after 48 h
RE007 growth inh – qHTS Assay for Inhibitors of the HIV-1 protein Vpr; S. pombe RE007 Vpr strain, BacTiter-Glo ATP luminescence, 24 h; control for the full effect not named in the record; Potency, µM (titrated, usually from 92.2 µM), for inactives: top-dose activity change, negative = less growth; actives 0.21% (n = 360,000); active = well fitted falling curve with a large enough effect; inconclusive = small, poorly fitted or top-dose-only effect; inactive = no such curve, though single readings can be large or run the other way;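 further: on the % scale 0 is the no-effect control and ±100 the full control effect; nearly all actives have a fitted effect of over 50% in size; the assay follows cell death caused by Vpr and the record does not say whether a fall means rescue or toxicity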
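Fission yeast RE007 carrying one integrated HIV-1 vpr copy, seeded at OD 0.01 in PMG+AL medium with 23 nL pinned compound. Grown 24 h at 30 degrees; viability read by BacTiter-Glo luminescence after 5 min.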
Cruzain inh noDet – qHTS Assay for Promiscuous and Specific Inhibitors of Cruzain (without detergent); Potency, µM, for inactives: max response, negative = inhibition, usual class: inhibitors; purified cruzain, Z-FR-AMC fluorescence, no detergent; Cruzipain (Trypanosoma cruzi), P25779; AID 1476, 2009; actives 2.3% (n = 200,000);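 further: plate controls were enzyme without inhibitor for no effect and buffer without enzyme for full effect; nearly all actives have a fitted effect of over 40% in size; top concentration of the series not given in the record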
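Detergent-free condition (0.00005% Triton X-100) in acetate buffer pH 5.5 with DTT. 1.5 nM enzyme and compound were pre-mixed 15 min, then 2 uM Z-FR-AMC substrate added; reaction progress from fluorescence change between first and third reads (60 s).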
NS1 function inh – qHTS Assay for Inhibitors of Influenza NS1 Protein Function. Potency, µM (titrated, usually from 46.1 µM), for the others: top-dose activity, positive = more growth. S. cerevisiae slowed by influenza A NS1, growth recovery by OD600. actives 0.4% (n = 270,000); active means well fitted rising curve with a large enough effect; inconclusive means small, poorly fitted or top-dose-only effect; inactive means no such curve, though single readings can be large or run the other way; further: nearly all actives have a fitted effect of over 50% in size
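In this qHTS, NS1 from influenza A is expressed in budding yeast, where it slows growth. Cells are switched from glucose to 2% galactose medium (pH 6.0, -URA), treated with compound, and growth recovery is read at OD600.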
MARV entry inh – qHTS for inhibitors of binding or entry into cells for Marburg Virus; Marburg virus pseudotyped entry inhibition, cell reporter; control for the full effect not named in the record; about a third of the inactives were read at about 46 µM; Potency, µM (top dose mostly 37.8 µM), inactives show at the top dose activity change, negative = inhibition, most hits filed as inhibitors; actives 1.8% (n = 300,000); AID 540276, 2011; active = well fitted inhibition curve with a large enough effect; inconclusive = small, poorly fitted or top-dose-only effect, or effect the other way; inactive = flat fitted curve, though single readings scatter; tested in HEK293 cells; about a fifth of its hits are not listed in these tables; further: on the % scale 0 is the no-effect control and ±100 the full control effect; luciferase read-out
* hit, by the source's call; ? = inconclusive; . = no result given; [ ] = remark or other dose. Unless noted, the call rests on the fitted dose curve; in most records, active means well fitted curve in the direction sought with a large enough effect; inconclusive means small, poorly fitted or top-dose-only effect, or another doubt; inactive means no such curve, though single readings can be large; an effect the other way counts as inactive or inconclusive. Potency means the concentration at half of the fitted maximal effect.

SMILES	Cruzain Triton	LASV entry inh	2A StopGo	SARS PLP yeast	RE007 growth inh	Cruzain inh noDet	NS1 function inh	MARV entry inh
COc1cc(OC)c(NS(=O)(=O)c2c(C(=O)N3CCCCCC3)c(C)n(C)c2C)cc1Cl	-0.7%	8%[46.1 µM]	38%[activator]	.	.	?	.	.
Cc1c(C(=O)NC2CCCCC2C)oc2ccccc12 (stereo not drawn)	.	-17%[46.1 µM]	3%	-13%	-7%	.	-58%	-13%[46.1 µM]
Cc1cccc(-n2ncc3c(Nc4ccc(C)c(Cl)c4)ncnc32)c1	3.5%	1%[46.1 µM]	4%	.	.	14%	.	.
CCn1c(SCC(=O)Nc2ccc(N(C)C)cc2)nnc1C1CC1	.	-2%	10%	-8%	-10%	.	-9%	5%[46.1 µM]
CN(C)/C=N/c1nc2nccc(-c3cccs3)n2n1	.	0%	-1%	3%	-10%	.	.	6%[46.1 µM]
COc1ccc(C(C)(C)C)cc1NC(=O)COC(=O)c1ccc([N+](=O)[O-])o1	.	-1%	-17%	-26%	?	.	-54%	23%
Cc1cccc(N2CCN(C(=O)C(Cc3ccccc3)NC(N)=O)CC2)c1C (stereo not drawn)	.	.	-25%	-2%	5%	.	6%	.
CC(C)c1ccc(NC(=O)c2cc3c(=O)oc4ccccc4c3s2)cc1	2.2%	3%[46.1 µM]	8%	.	.	4%	.	?
CCN(CC)CCCNC(=O)c1cc(Nc2ccc(OC)cc2OC)nc2ccccc12	.	.	-17%	1%	-7%	.	0%	.
O=C(O)c1cc(NN=C2c3ccccc3-c3ccccc32)ccc1Cl	.	-3%	-2%	-6%	5%	.	-55%	-2%[46.1 µM]
CC(C)[C@H](NC(=O)N1CCn2c1nc1ccccc12)C(=O)NC1CC1	.	.	-1%	8%	-3%	.	-11%	.
COc1ccc(OC)c(CCNC(=O)CCCn2c(=O)c3cccn3c3ccccc32)c1	-4.9%	27%[46.1 µM]	0%	.	.	5%	.	.
O=C1CC(NS(=O)(=O)c2ccc3ccccc3c2)CN1c1ccccc1 (stereo not drawn)	.	?	-27%	1%	6%	.	.	?
Cc1cccc(-c2nc3c(c(SCC(=O)N4CCCC4)n2)COC(C)(C)C3)c1	.	28%[46.1 µM]	12%	1%	-8%	.	-10%	0%[46.1 µM]
Cn1nnnc1SCC(=O)Nc1ccccc1Cl	6.4%	0%	21%	-1%	13%	5%	-1%	?
COc1ccc(C(=O)N2N=C3CC(C)(C)OCC3C2c2ccccc2)cc1 (stereo not drawn)	-2.1%	21%	-9%	5%	3%	-2%	-13%	?
Cc1cc(=O)[nH]c(SC(C)C(=O)Nc2cccc3ccccc23)n1 (stereo not drawn)	.	18%[46.1 µM]	-12%	1%	4%	.	-5%	3%[46.1 µM]
O=C1CC(Sc2nnnn2C2CCCCC2)C(=O)N1c1ccccc1 (stereo not drawn)	0.0%	-17%	.	-87%	?	-6%	-46%	-7%
COc1cccc(CN(C)CC(=O)Nc2ccccc2N2CCOCC2)c1OC	.	1%[46.1 µM]	-1%	0%	2%	.	16%	?
C=CCc1cc(C)ccc1OCCOCCn1ccnc1	4.3%	?	0%	-4%	1%	-3%	-11%	-6%
Cc1ccc(S(=O)(=O)N2CCN(C(=O)C3CSC4(C)CCC(=O)N34)CC2)cc1C (stereo not drawn)	.	1%	-1%	-1%	-3%	.	.	?
O=C(CCCc1nc2ccccc2s1)NCc1ccccc1	-1.1%	13%	-3%	11%	3%	5%	-13%	24%
O=c1nc(Nc2ccc(Br)cc2)sc2ccc([N+](=O)[O-])cc12	.	.	-13%	0%	5%	.	6%	.
Cc1ccc(C)c2[nH]c(=O)c(CN(Cc3cccnc3)C(=S)NCc3ccco3)cc12	.	.	-11%	3%	-15%	.	1%	.
COc1cc(SC)ccc1C(=O)NCCN1CCOCC1	.	15%	-13%	1%	7%	.	1%	-1%

(further entries)
SMILES	Cruzain Triton	LASV entry inh	2A StopGo	SARS PLP yeast	RE007 growth inh	Cruzain inh noDet	NS1 function inh	MARV entry inh
Cc1cccc(-c2nc3scc(CCNS(=O)(=O)c4ccc(Oc5ccccc5)cc4)n3n2)c1	-0.8%	-2%[46.1 µM]	-7%	.	.	-29%	.	.
Cc1ccc(S(=O)(=O)NC2CCCCCC2)cc1C(N)=O	.	.	0%	-3%	3%	.	7%	.
COc1ccccc1NC(=O)Cn1c(=O)n(Cc2ccccc2)c(=O)c2ccccc21	-1.0%	6%[46.1 µM]	-24%	.	.	0%	.	19%[46.1 µM]
CCOC(=O)c1sc2nc(C)nc(SCC(N)=O)c2c1C	-1.3%	-2%	-5%	-11%	8%	-5%	11%	21%
COc1ccc(C(=O)C2CCCN(Cc3cnc(C)s3)C2)cc1OC (stereo not drawn)	.	8%	-8%	-1%	-12%	.	-3%	1%[46.1 µM]
COc1ccc(C(=O)Nc2ccc(C)c(S(=O)(=O)N3CCCCCC3)c2)cc1	.	?	20µM*	-4%	1%	.	.	?
CCC(=O)Nc1cc(C(=O)OCC(=O)c2ccc(Cl)cc2Cl)ccc1C	-1.7%	6%	5%	2%	-1%	3%	11%	12%
CNS(=O)(=O)c1cccc(C(=O)NCC(c2cccs2)N2CCOCC2)c1 (stereo not drawn)	.	1%	-12%	4%	-4%	.	.	17%[46.1 µM]
C=CCN1c2ccccc2[C@]23C[C@@H](C(=O)OC)N(C(=O)C4CCC4)C2=NC(C(=O)OC)=C(C(=O)OC)[C@H]13	.	.	-27%	-4%	-19%	.	-4%	.
COc1cccc(NC(=O)CN2CCc3ccccc3C2)c1	.	.	38%[activator]	-14%	-1%	.	-19%	.
CC1CCN(C(=O)CSc2nnc(-c3ccccc3F)o2)CC1	.	3%[46.1 µM]	24%	-1%	-22%	.	-5%	?
COc1ccc(Nc2ncnc3c2cnn3-c2cc(Cl)ccc2C)cc1OC	-3.9%	?	-8%	.	.	-7%	.	.
O=C(N1CCOCC1)N1CCN(c2ccc(F)cc2)CC1	0.3%	20%	.	4%	-14%	-7%	2%	2%
Cn1nnnc1SCC(=O)N1c2ccccc2Sc2ccc(Cl)cc21	-13%	-14%	?	-2%	22%	1%	3%	-15%
NC(=O)[C@@H]1CC2(CC(c3cccc(NC(=O)[C@H]4CCC(=O)N4)c3)=NO2)CN1C(=O)c1ccc(Cl)cc1 (stereo partly drawn)	.	.	-9%	0%	1%	.	1%	.
CN(C(=O)CSc1nc2ccccc2n1Cc1cccc(C(F)(F)F)c1)c1ccccc1	-10%	?	?	.	.	?	.	.
COc1ccc(OC)c(N=C(N)N=C(N)N)c1	.	.	4%	1%	-11%	.	5%	.
CC(C)Cc1ccc(CN2CCCC(NC(=O)CCn3cnnn3)C2)cc1 (stereo not drawn)	.	4%	0%	2%	-7%	.	9%	-33%
COc1ccc(/C=N/Nc2nc3ccccc3o2)cc1OC	-2.9%	4%	.	-8%	2%	-4%	5%	11%
O=C1C2C3C=CC(C3)C2C(=O)N1c1cccc2cccnc12 (stereo not drawn)	4.0%	10%	-11%	-1%	-10%	-2%	7%	3%
CC1CC(C)CN(C(=O)c2cccc(NC(=O)CC3SC(N4CCCCC4)=NC3=O)c2)C1 (stereo not drawn)	.	?	-21%	-7%	-4%	.	.	?
CC(NCC(=O)NCCc1ccc(S(N)(=O)=O)cc1)c1ccc(F)cc1 (stereo not drawn)	.	10%	-18%	2%	3%	.	-5%	-6%
Cc1ccc(S(=O)(=O)N2CCN(C(=O)c3cccc(F)c3)CC2)cc1	-1.7%	15%	-4%	.	11%	0%	-3%	-2%
CC(C)(C)CC(C)(C)NC(=O)c1ccccc1	.	?	63%[activator]	1%	-4%	.	0%	-4%[46.1 µM]
COc1ccc(NC(=O)COc2cccc(C(F)(F)F)c2)cn1	.	-13%[46.1 µM]	-27%	-4%	-18%	.	.	?

The results go on.
SMILES	Cruzain Triton	LASV entry inh	2A StopGo	SARS PLP yeast	RE007 growth inh	Cruzain inh noDet	NS1 function inh	MARV entry inh
COc1cccc(/C=N/NC(=O)CSc2ccccc2C)c1OC	-8.2%	?	3%	9%	17%	-2%	-12%	?
O=S(=O)(NCCN1CCOCC1)c1cccs1	.	2%[46.1 µM]	24%	6%	-3%	.	0%	2%[46.1 µM]
CCc1cccc(NC(=O)Cn2c(=O)n(CCC(=O)NCc3ccccc3Cl)c(=O)c3sccc32)c1	-2.6%	-18%[46.1 µM]	8%	.	.	-19%	.	12%[46.1 µM]
COc1ccc(C(=O)n2c(C)c(CCO)c(=O)n2C)cc1	.	21%[46.1 µM]	12%	0%	2%	.	.	25%[46.1 µM]
CCN(CC(=O)Nc1ccccc1C(F)(F)F)C(=O)CN1C(=O)NC(C)(c2ccccc2)C1=O (stereo not drawn)	.	4%	-17%	-4%	-9%	.	.	-3%
CCOC(=O)N1CCN(C2CC(=O)N(c3ccc(C)cc3)C2=O)CC1 (stereo not drawn)	6.6%	2%	-17%	-10%	-29%	4%	-14%	20%
CCCCCCn1c(=O)c(Cc2ccccc2)c(O)c2ccccc21	.	?	-9%	2%	0%	.	.	10%[46.1 µM]
Nc1nc(SCC(=O)NCc2ccccc2)n[nH]1	0.1%	1%	-9%	-4%	8%	0%	-12%	3%
CCOc1ccc(N(CC)S(=O)(=O)c2ccc3c(c2)n(C)c(=O)c(=O)n3C)cc1	4.9%	.	-3%	6%	-4%	-10%	5%	-1%
O=C(NC1CCCC1)C(c1ccccc1)N(C(=O)c1csnn1)c1ccccc1F (stereo not drawn)	.	-9%[46.1 µM]	4%	0%	5%	.	17%	-20%[46.1 µM]
Cc1cc(C)n(-c2nnc(C)n2/N=C/c2ccc(O)cc2)n1	.	6%	4%	1%	12%	.	7%	27%[46.1 µM]
C#CCn1c(-c2cccs2)nc2ccccc21	.	-29%[46.1 µM]	20%	0%	0%	.	-1%	29%[46.1 µM]

From PubChem BioAssay
